PME-1 inh – blocks human protein phosphatase methylesterase 1 | Q9Y570 | recombinant PME-1, FP-Rh probe fluorescence polarization | 320,000 compounds, 0.53% hits | AID 2130 | inhibition, % at 5.9 µM;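 active = inhibition above the campaign mean of all compounds plus 3 SD, cut at about 26% in these data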;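 also: competitive labeling of PME-1 active site by serine hydrolase directed probe; 0% = PME-1 with DMSO and 100% = wells lacking PME-1 enzyme; inhibitors block probe labeling so polarization falls and inhibition rises; many of its hits are not listed in these tables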
PAD4 inh – blocks human protein arginine deiminase 4. Q9UM07. recombinant PAD4, RCA probe fluorescence polarization. inhibition, % at 6.36 µM. 330,000 compounds, 0.41% hits. AID 485272;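 active = percent inhibition above a cutoff equal to the mean of all tested compounds plus 3 SD, cut at about 15% in these data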;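 also: 0% = PAD4 with RCA probe and DMSO and 100% = probe without PAD4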
LYPLA2 counter – LYPLA2 (human) inhibition in PME1 counter-screen; inhibition, % at 5.9 µM; AID 2177; O95372; 320,000 compounds, 0.38% hits; recombinant LYPLA2, FP-Rh probe fluorescence polarization;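 active = inhibition above the screen-wide mean plus 3 SD, limit set per campaign, cut at about 26% in these data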;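 also: 0% = LYPLA2 with DMSO and 100% = wells lacking LYPLA2 enzyme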
Target sequence (O95372 whole entry, looked up): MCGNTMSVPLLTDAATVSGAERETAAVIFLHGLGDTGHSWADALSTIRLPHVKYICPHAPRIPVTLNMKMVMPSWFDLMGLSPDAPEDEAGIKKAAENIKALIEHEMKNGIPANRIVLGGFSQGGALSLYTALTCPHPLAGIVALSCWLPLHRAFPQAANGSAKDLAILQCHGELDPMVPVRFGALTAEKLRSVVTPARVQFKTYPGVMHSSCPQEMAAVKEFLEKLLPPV
LYPLA1 inh – blocks human lysophospholipase 1, a PME1 counter-screen; recombinant LYPLA1, FP-Rh probe fluorescence polarization; O75608; inhibition, % at 5.9 µM; 320,000 compounds, 0.16% hits;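 active = inhibition above the mean of all tested compounds plus 3 SD, set per campaign, cut at about 14% in these data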;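 also: inhibitors block serine hydrolase probe labeling of LYPLA1 so polarization falls; 0% = enzyme with DMSO and 100% = wells lacking LYPLA1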
Target sequence (O75608 whole entry, looked up): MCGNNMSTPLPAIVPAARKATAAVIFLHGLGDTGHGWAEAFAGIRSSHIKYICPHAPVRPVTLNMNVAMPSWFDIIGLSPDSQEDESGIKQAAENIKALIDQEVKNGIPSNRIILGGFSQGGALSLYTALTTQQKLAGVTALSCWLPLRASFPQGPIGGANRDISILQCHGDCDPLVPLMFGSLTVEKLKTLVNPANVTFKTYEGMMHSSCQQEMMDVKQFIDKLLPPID
PAFAH1B3 FP inh – blocks human PAF acetylhydrolase 1B catalytic subunit 3; inhibition, % at 3.39 µM; recombinant PAFAH1B3, FP-rhodamine probe, fluorescence polarization; 340,000 compounds, 0.28% hits;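 active = inhibition above the screen-wide average of all tested compounds plus 3 SD, cut at about 25% in these data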;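 also: 0% = enzyme with DMSO only and 100% = wells lacking PAFAH1B3 protein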
Target sequence (Q15102 whole entry, looked up): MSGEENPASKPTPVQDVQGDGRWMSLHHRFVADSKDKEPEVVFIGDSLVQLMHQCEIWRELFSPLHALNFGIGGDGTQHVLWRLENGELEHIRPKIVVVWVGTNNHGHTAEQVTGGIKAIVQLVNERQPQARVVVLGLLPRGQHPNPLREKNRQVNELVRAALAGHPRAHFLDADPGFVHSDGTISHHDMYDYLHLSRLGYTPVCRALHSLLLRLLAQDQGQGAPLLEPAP
An asterisk follows results filed as active; / = not tested or not shown; & = joins results of further samples. A portion of the library. The share of hits here may be higher or lower than overall.

SMILES	PME-1 inh	PAD4 inh	LYPLA2 counter	LYPLA1 inh	PAFAH1B3 FP inh
CCn1c(SCC(=O)Nc2cccc(C)c2)nc2c(c1=O)SC(C)C2 (stereo not given)	8	-4	1	3	12
CC(Sc1nnnn1C)C(=O)Nc1ccc(Oc2ccccc2)cc1 (stereo not given)	-9	-1	5	-2	-4
Cc1cccc(Cn2c(=O)n(CCCC(=O)NCc3ccco3)c(=O)c3ccccc32)c1	9	2	1	2	-2
C/C(=C\C(=O)c1ccccc1)Nc1ccc2c(c1)OCO2	4	-12	0	0	0
CC/C(=N\NC(=O)c1ccc2c(c1)OCO2)C12CC3CC(CC(C3)C1)C2	-2	-5	4	2	8
CC(=O)C1=C(O)C(=O)N(CCC(=O)O)C1c1ccc(Cl)cc1Cl (stereo not given)	2	3	-1	0	14
O=C(NC1CCCCC1)C1CCN(C(=O)c2ccccc2Cl)CC1	-5	-1	-2	-2	5
O=C(Nc1ccccc1C(=O)O)c1cccc(NC(=O)c2ccc(Br)o2)c1	-14	0	6	-1	0
CCc1cc(-c2n[nH]c(C)c2-c2nc(C)cs2)c(O)cc1OC	4	2	-5	-3	8
COC(=O)CCC(=O)COc1ccc(OC)cc1C#N	0	0	-4	0	8
S=c1[nH]nc(-c2ccncc2)n1/N=C/C=C/c1ccccc1	2	0	1	-1	4
Fc1cccc(Cc2noc(CN3CCSCC3)n2)c1	-1	-4	-2	2	5
O=C(Cc1n[nH]c(=O)c2ccccc12)OCC(=O)c1ccc2c(c1)OCCO2	-1	1	4	2	2
CC(NC(=O)Cc1cccs1)c1ccccc1 (stereo not given)	0	0	3	-1	12
O=C1C(SC(F)(F)C(F)F)=C(C(F)(F)F)OC2C3C=CC(C3)C12 (stereo not given)	-1	-1	6	-1	6
CCOC(=O)[C@H](O)[C@@H](O)c1cccc([C@H](O)[C@@H](O)C(=O)OCC)c1	1	-1	0	6	8
COc1ccc(CCCC(=O)NCc2ccccc2)cc1C	7	1	-2	-4	13
Cn1c(=O)c2c(nc(-n3ccnc3)n2Cc2ccc(Cl)cc2Cl)n(C)c1=O	0	1	5	0	0
COc1cccc(N/C(C)=C/C(=O)c2ccc(Br)cc2)c1	1	-4	-2	2	3
CC[C@H](C)[C@H](NC(N)=O)C(=O)Nc1ccc(C)cc1	-4	2	6	-12	-6
Cc1ccc(S(=O)(=O)N2CCC(C(=O)N[C@H](C(=O)NCC3CCCO3)C(C)C)CC2)cc1 (stereo not given in full)	4	-2	2	1	11
CCOc1cc2[nH]c(=O)n(CCCC(=O)NCc3ccco3)c(=O)c2cc1OCC	1	1	-4	-1	10
COc1ccc(C(C#N)Nc2ccccc2C)cc1 (stereo not given)	-3	1	2	2	7
CC(NC(=O)COC(=O)Cc1ccsc1)C1CC2CCC1C2 (stereo not given)	-5	-4	-9	1	3
CCC(CC)NC(=O)COC(=O)c1ccc(NS(=O)(=O)c2ccc3c(c2)OCCO3)cc1	-6	-2	5	4	3
CCc1ccccc1OCC(=O)Nc1cccc(S(=O)(=O)NC2=NCCCCC2)c1	1	0	6	2	6
N#Cc1c2n(c(=S)n(-c3ccccn3)c1=O)CCCCC2	4	0	6	-1	-4
CC(C)OC(=O)CCCN1C(=O)c2ccc(N)cc2C1=O	1	-6	-2	3	4
CCOc1ccc2oc(C(=O)N3CCN(c4ccccc4OCC)CC3)c(C)c2c1	-7	3	-6	-4	4
CCc1ccc(C(=O)OCC(=O)Nc2cccc(S(=O)(=O)NC3=NCCCCC3)c2)cc1	-5	-3	2	-2	2
Cc1ccc(C)c(-c2cc(C(=O)Nc3nccs3)c3ccccc3n2)c1	-5	0	-4	-7	4
COc1ccc(NC(=O)CSc2nnc(-c3cccs3)n2-c2ccccc2)cc1	3	-2	3	6	10
CCc1ccc(N2C(=O)C3ON(c4ccccc4)C(c4ccco4)C3C2=O)cc1 (stereo not given)	0	-5	-1	0	3
Cc1ccc(C(=O)N(C)c2nnc(-c3ccncc3)s2)cc1	2	-1	6	-1	7
Cc1ccc(C(=O)NCCSc2ccc(Cl)cc2)cc1S(=O)(=O)Nc1ccccc1	-46	2	-53	-30	-5
CCOC(=O)CCCc1sc(N)nc1-c1[nH]c(=O)[nH]c1C	-2	-4	3	2	3
O=C(Nc1cc(S(=O)(=O)N2CCCCC2)ccc1O)c1ccccc1NS(=O)(=O)c1ccc(F)cc1	5	1	-11	-6	5&9
O=C(COC(=O)c1ccccc1)Nc1cccc(S(=O)(=O)NC2=NCCCCC2)c1	2	-3	3	0	6
O=C(Cn1c(=O)n(Cc2ccccc2)c(=O)c2ccccc21)NCc1ccco1	-2	-3	1	-1	-1
O=C(CSc1nnc(COc2ccc(Cl)cc2)o1)OC1CCCCC1	0	-4	8	4	5
Cc1noc(C)c1S(=O)(=O)N(CCc1ccccc1)Cc1ccccc1	6	-2	3	5	-2
N#C/C(=C\c1ccc(-c2ccccc2)cc1)c1nc(-c2ccco2)cs1	-10	-20	-14	-17	-2
O=C(OC1CCN(c2ncc(C(F)(F)F)cc2Cl)CC1)c1ccc(Cl)cc1	-5	-3	1	0	6
O=C1CC(c2ccccc2)CC(O)=C1C=NCCCO (stereo not given)	-2	1	5	2	8
O=C(Nc1ccccc1)c1cccnc1Nc1ccccc1	-2	1	10	-4	-1
O=C1CSc2ccc(S(=O)(=O)NCc3ccccc3Cl)cc2N1	17	2	-3	-2	2
CCOC(=O)NCC(C)(C)CNC(=O)OCC	2	-1	-1	-5	6
On1c(-c2ccco2)nc2c1CCc1nonc1-2	-4	-9	-5	-3	6
Cc1ccc(N(C(=O)c2ccccn2)C(C(=O)NC2CCCCC2)c2ccncc2)cc1 (stereo not given)	-1	-6	2	3	1
CCC(C)(C)n1nnnc1C(c1ccc2ncccc2c1)N1CCN2CCCC2C1 (stereo not given)	1	1	5	-1	7
O=C(NCc1ccc(F)cc1)c1cnc2sccn2c1=O	0	-1	-3	1	9
Cc1ccc(CCNS(=O)(=O)c2ccc3c(c2)NC(=O)CCS3)cc1	7	-1	4	1	6
O=C1Nc2c(c(=O)[nH]c(=O)n2-c2ccccc2)C(C(F)(F)F)(C(F)(F)F)N1	-2	-3	8	2	7
CN(CC(=O)Nc1cccc(F)c1)C(=O)c1cn2ccccc2n1	2	2	5	-1	-1
COc1ccc(C(=O)N(CN2CCCC2=O)c2nccs2)cc1OC	6	1	-4	0	5
O=C1OC(c2ccc(Cl)cc2)=N/C1=C\C=C\c1ccco1	3	-2	-2	-7	3
C/C(=N\NC1=NCCN1)c1ccc(N)c([N+](=O)[O-])c1	-5	0	-5	-3	4
CC1CC(C)CN(C(=O)COC(=O)c2ccc(S(=O)(=O)N(C)c3ccccc3)cc2)C1 (stereo not given)	/	1	/	/	6
C/C(=C\C(=O)c1ccccc1)Nc1ccc(O)cc1	13	50*	25	10	3
COc1cccc(NS(=O)(=O)c2cc(C)ccc2OC)c1	14	1	-1	3	3

Later entries
SMILES	PME-1 inh	PAD4 inh	LYPLA2 counter	LYPLA1 inh	PAFAH1B3 FP inh
Cc1ccc(Oc2ccc(NS(=O)(=O)c3cccc(C(=O)O)c3)cc2)cc1	/	-3	/	/	10
Cc1ccc(N2C(N)=NC(N)=NC23CCCC3)c(C)c1	-1	-5	-2	3	11
CN(CC(=O)Nc1cccc(F)c1)C(=O)c1cccnc1Sc1ccc(Cl)cc1	7	-3	8	2	0
O=C(O/N=C(/c1ccccc1)c1ccncc1)c1cccc(F)c1	-3	-2	0	7	5
CCOc1cc(-c2nc3ccccn3c2NCC2CCCO2)ccc1O (stereo not given)	6	1	2	1	11
Cc1nc2nc(SCC(=O)O)nn2c(C)c1Cc1c(F)cccc1Cl	2	2	-6	-2	0
Cc1cccc(/C=N/n2c(-c3ccncc3)n[nH]c2=S)c1	2	3	4	-2	7
CC(C)c1c(O)nc(SCCC(=O)O)[nH]c1=O	1	6	7	7	7
Cc1nc(SCCCSc2n[nH]c(C)n2)n[nH]1	-1	-2	-1	1	7
Cc1ccc(N(C(=O)c2csnn2)C(C(=O)NC2CCCC2)c2ccccn2)cc1 (stereo not given)	0	-6	-2	-3	-1
Cc1ccc(C2C3=C(NCCN=C3c3ccccc3)C(=O)N2c2ccccc2)cc1 (stereo not given)	-4	-3	3	-1	4
COc1ccc(OC)c(C2NC(=O)NC(C)=C2C(=O)Nc2ccc(C)cc2C)c1 (stereo not given)	5	2	7	4	-3
COc1ccc(NC(=O)c2sc(Cl)nc2-c2ccccc2)cc1	-22	-3	3	-3	1
N#CC1=C(O)CCCn2c1nc1ccccc1c2=O	1	-2	7	1	3
COc1ccc(C(=O)Nc2ccccc2C(=O)Nc2cccnc2)cc1	-1	2	1	-2	6
CSc1ncccc1C(=O)N(C)CC(=O)Nc1cccc(F)c1	3	0	5	0	-1
O=C(NC1CCCC1)C(c1ccncc1)N(C(=O)c1ccco1)c1ccccc1 (stereo not given)	-4	-7	8	4	0
Cc1ccc(SCC(=O)OCC(=O)N(CCC#N)c2ccccc2)cc1	-4	-12	0	1	10
COc1ccc(NC(=O)CSc2nnc(-c3cccs3)n2C)cc1OC	1	0	6	-5	-1
COc1cc([N+](=O)[O-])c(OC)cc1SCc1n[nH]c(=S)n1-c1ccc(F)cc1	-1	8	1	0	3
CCn1c(SCC(=O)Nc2ccccc2F)nc2c(c1=O)SC(C)C2 (stereo not given)	-1	0	-3	1	3
CC(C)(C)c1ccc(OCC(=O)NNC(=O)c2cccnc2)cc1	3	0	-7	0	/
C=CCNC(=S)N/N=C/c1ccc(N(CC)Cc2ccccc2)cc1	8	2	0	-2	0
COc1nc(N2CCOCC2)nc(-n2cccc2)n1	2	1	3	0	5
c1ccc(C(c2ccccc2)N2CCN(Cc3nnnn3C3CCCC3)CC2)cc1	-1	-5	2	-2	5
COc1ccc(OC)c(NS(=O)(=O)c2ccc(SC)cc2)c1	14	-1	5	-2	2
CCOc1ccccc1NC(=O)CSc1nc2c(c(=O)n1C)SC(C)C2 (stereo not given)	4	0	-2	0	5
CCNC(=S)NC(=NCc1cccnc1)Nc1nc(C)cc(C)n1	1	-3	3	-1	-6
CCOC(=O)/C(C#N)=C1/C=C(C)NC(c2ccccc2O)=N1	18	-6	6	2	13
Cc1cc(-c2nnc(SCC(=O)N3C(C)CCCC3C)o2)no1 (stereo not given)	1	0	-1	5	-1

Reformatted comma-delimited: entries from further up
smiles,PME-1 inh,PAD4 inh,LYPLA2 counter,LYPLA1 inh,PAFAH1B3 FP inh
CC1CC(C)CN(C(=O)COC(=O)c2ccc(S(=O)(=O)N(C)c3ccccc3)cc2)C1 (stereo not given),/,1,/,/,6
COc1ccc(NC(=O)CSc2nnc(-c3cccs3)n2-c2ccccc2)cc1,3,-2,3,6,10
CCC(CC)NC(=O)COC(=O)c1ccc(NS(=O)(=O)c2ccc3c(c2)OCCO3)cc1,-6,-2,5,4,3
c1ccc(C(c2ccccc2)N2CCN(Cc3nnnn3C3CCCC3)CC2)cc1,-1,-5,2,-2,5
CCNC(=S)NC(=NCc1cccnc1)Nc1nc(C)cc(C)n1,1,-3,3,-1,-6

Reprinted at random: 5 records from the list, in no set order.
SMILES	PME-1 inh	PAD4 inh	LYPLA2 counter	LYPLA1 inh	PAFAH1B3 FP inh
CCOc1ccccc1NC(=O)CSc1nc2c(c(=O)n1C)SC(C)C2 (stereo not given)	4	0	-2	0	5
CCOC(=O)/C(C#N)=C1/C=C(C)NC(c2ccccc2O)=N1	18	-6	6	2	13
CSc1ncccc1C(=O)N(C)CC(=O)Nc1cccc(F)c1	3	0	5	0	-1
Cc1ccc(SCC(=O)OCC(=O)N(CCC#N)c2ccccc2)cc1	-4	-12	0	1	10
Cc1cc(-c2nnc(SCC(=O)N3C(C)CCCC3C)o2)no1 (stereo not given)	1	0	-1	5	-1

Next section:
SMILES	PME-1 inh	PAD4 inh	LYPLA2 counter	LYPLA1 inh	PAFAH1B3 FP inh
CC1=CC(C)(C)Nc2ccc(OC(=O)c3cccnc3)cc21	1	-5	-1	3	-6
COc1ccc(-c2noc(C)c2-c2ccc3ccccc3n2)c(O)c1	7	3	-5	-3	8
CC(=O)Nc1ccc(N(C(=O)c2cnccn2)C(C(=O)NC2CCCCC2)c2ccc(O)cc2)cc1 (stereo not given)	6	5	4	0	6
Cc1cc2nc3s/c(=C/c4ccc(-c5ccccc5C(=O)O)o4)c(=O)n3c2cc1C	23	2	11	10	5
CCOC(=O)C(CCSC)NC(=O)CN (stereo not given)	-2	-1	9	-2	5
